Menin MLL FP FL = menin-MLL binding inhibition, fluorescein peptide; 290,000 tested, under 10 active; AID 1766; Fluorescence polarization, fluorescein-MLL peptide displacement from menin; FP activity change, % at 61.4 µM; inconclusive = falling polarisation curve, or a change in total fluorescence; inactive = total fluorescence flat and polarisation flat or rising; no compound was filed as active; the % refers to the polarisation; negative = inhibition;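 note: % of control where 0% means no effect; inhibitors lower the polarisation; unlabelled MLL peptide was the positive control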
Sfp inh = inhibitors of Bacillus subtilis Sfp phosphopantetheinyl transferase; Biochemical Sfp PPTase activity, qHTS; 310,000 tested, 3.5% active; Potency, µM, without a hit: max response, negative = inhibition, most hits filed as inhibitors; AID 1490; Q9F4F7; active = well fitted inhibition curve with a large enough effect; inconclusive = small, poorly fitted or top-dose-only effect, or another doubt; inactive = no such curve, though single readings can be large or run the other way;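 note: the enzyme is Sfp with the accession as filed and its product quenches rhodamine fluorescence; potency is the fitted concentration of half-maximal effect; 0% = enzyme reaction without inhibitor and -100% = no enzyme wells; top concentration of the series not given in the record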
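Step 1, compound plus 15 nM Sfp-PPTase, 15 min, room temperature. Step 2, add rhodamine-CoA (5 uM) and BHQ-2-YbbR (12.5 uM). Step 3, read 525/598 nm fluorescence at 0 and 30 min.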
gsp antag = antagonizes gsp, the McCune-Albright syndrome mutation; 340,000 tested, 0.4% active; gsp-mutant cells, cAMP HTRF, 30 min; control for the full effect not named in the record; Potency, µM (titrated, usually from 76.9 µM), for inactives: at the highest dose activity change, negative = inhibition, actives largely listed as inhibitors; active = falling curve of any shape with a large fitted effect; inconclusive = falling curve, mostly with a smaller effect; inactive = flat or rising curve; cell line not stated here;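 note: intracellular cAMP measured with PDE inhibitor Ro 20-1724 present during compound exposure; potency is the fitted concentration of half-maximal effect; % is set by controls: 0 for no effect and ±100 for the full control effect; nearly all actives have a fitted effect of over 65% in size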
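HTRF cAMP read-out (cAMP-d2 plus anti-cAMP antibody-K in lysis buffer, 30 min RT). Before lysis, cells are exposed to compounds with […] for 30 min at 37C in DPBS containing Ca/Mg, BSA and Tween 20.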
TRPV1 PAM = potentiators of human vanilloid receptor 1 (TRPV1); Q8NER1; TRPV1-expressing cells, Fluo-8 calcium influx, capsaicin EC20 potentiation; host cell line not named in the record; control for the full effect not named in the record; potentiation, % at 8.33 µM; 320,000 tested, 0.02% active; AID 540277; active means potentiation above 80%; inconclusive means 30% to 80%; inactive means below 30%; note: 0% is about no effect
Target sequence (Q8NER1 whole entry, looked up): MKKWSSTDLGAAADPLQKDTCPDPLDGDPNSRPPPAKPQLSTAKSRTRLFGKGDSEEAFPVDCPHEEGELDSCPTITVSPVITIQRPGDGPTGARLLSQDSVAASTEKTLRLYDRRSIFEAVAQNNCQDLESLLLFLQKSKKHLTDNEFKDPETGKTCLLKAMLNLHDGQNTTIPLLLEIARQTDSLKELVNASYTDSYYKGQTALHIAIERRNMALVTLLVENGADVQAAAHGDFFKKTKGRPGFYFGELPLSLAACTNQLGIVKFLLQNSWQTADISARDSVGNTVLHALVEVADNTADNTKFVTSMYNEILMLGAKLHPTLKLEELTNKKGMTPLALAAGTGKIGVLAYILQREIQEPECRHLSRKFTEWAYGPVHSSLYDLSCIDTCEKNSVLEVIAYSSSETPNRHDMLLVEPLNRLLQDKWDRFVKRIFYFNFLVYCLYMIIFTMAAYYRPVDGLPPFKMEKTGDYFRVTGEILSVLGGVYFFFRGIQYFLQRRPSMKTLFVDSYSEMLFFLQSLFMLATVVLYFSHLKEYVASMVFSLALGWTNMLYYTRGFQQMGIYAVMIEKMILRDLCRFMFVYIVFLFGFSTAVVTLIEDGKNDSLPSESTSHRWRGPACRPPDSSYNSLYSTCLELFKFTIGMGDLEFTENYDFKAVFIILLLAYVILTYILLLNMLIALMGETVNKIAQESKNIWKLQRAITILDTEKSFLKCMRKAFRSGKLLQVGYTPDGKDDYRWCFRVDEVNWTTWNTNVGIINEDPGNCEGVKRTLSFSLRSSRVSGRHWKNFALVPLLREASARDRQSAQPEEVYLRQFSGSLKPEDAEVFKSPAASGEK
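Fluo-8 calcium influx in TRPV1-expressing cells, kinetic read (ex 480/em 520 nm). Compound added and read 3 min for agonist activity, followed by capsaicin at EC20 final and 2 min further read for enhancement.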
ClpP mod = qHTS Assay for Activators of ClpP. ATP-dependent Clp protease proteolytic subunit (Bacillus subtilis (strain 168)), P80244. purified B. subtilis ClpP, FRET peptide cleavage, 20 min. Potency, µM (doses to about 57.5 µM), for the others: top-dose activity change, negative = active. 340,000 tested, 1.9% active. AID 651965, 2013; active = well fitted falling curve with a large enough effect; inconclusive = small, poorly fitted or top-dose-only effect; inactive = no such curve, though single readings can be large or run the other way; note: potency is the fitted concentration of half-maximal effect; the source files actives as falling curves though it sought activators and does not explain the sign; nearly all actives have a fitted effect of over 65% in size; many hits overshoot -100%
Target sequence (P80244 whole entry, looked up): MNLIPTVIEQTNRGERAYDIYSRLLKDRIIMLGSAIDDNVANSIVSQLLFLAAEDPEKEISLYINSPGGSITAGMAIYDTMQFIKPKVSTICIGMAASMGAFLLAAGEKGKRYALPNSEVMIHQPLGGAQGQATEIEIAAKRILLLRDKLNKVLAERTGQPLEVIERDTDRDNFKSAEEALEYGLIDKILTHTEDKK
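ClpP 10 microg/mL final, pH 8 Tris/KCl buffer with BSA, glycerol, Tween-20; compound pinned in; FRET-FV substrate; RT 20 min; Ex320/Em430; ΔFRET vs ADEP 5.8 microM, DMSO, no enzyme.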
gsp agonist = activates gsp, the McCune-Albright syndrome mutation. gsp mutant cells, cAMP HTRF, 30 min; control for the full effect not named in the record. Potency, µM (doses to about 76.9 µM), for inactives: at the highest dose activation (cAMP increase), most hits filed as activators. 340,000 tested, 0.13% active. AID 624287; active = well fitted activation curve with a large enough effect; inconclusive = small, poorly fitted or top-dose-only effect, or another doubt; inactive = no such curve, though single readings can be large or run the other way; cell line not stated here;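 note: phosphodiesterase inhibitor Ro 20-1724 added with compounds to block cAMP breakdown; potency is the fitted concentration of half-maximal effect; nearly all actives have a fitted effect of over 60% in size; about a fifth of the inactives were tested at one dose only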
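Cells in DMEM/10% FBS with G418 were pretreated with compounds in DMSO plus […] (300 uM stock) for 30 min at 37C. cAMP was measured by HTRF (cAMP-d2 plus anti-cAMP antibody-K) after 30 min at room temperature.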
TRPML1 blocker = human mucolipin-1 channel inhibition; 390,000 tested, 0.02% active; activity change, negative = inhibition, % (no concentration beside the values); Q9GZU1; TRPML1-inducible cells, Ca2+ dye fluorescence, FDSS; active compounds read low; inhibition of EC80 agonist-evoked calcium signal; in the data active means activity change below about -50%; inconclusive means about -30% to -50%; inactive means above about -30%;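 note: stimulus is agonist 54-4 at its EC80 concentration; % is set by controls: 0 for no effect and ±100 for the full control effect; compound concentration not given in the record; the text of the record puts the active cut at -80%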
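Tet-induced TRPML1-DL cells loaded with Ca8 no-wash calcium dye were read kinetically on FDSS. Compound addition was followed by EC80 agonist 54-4 (4 uM final); inhibition was read over 110 s.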
* marks the source's active call; other numbers are inactive results; ? = inconclusive; nt = no result given; [ ] = remark or other dose.

SMILES	Menin MLL FP FL	Sfp inh	gsp antag	TRPV1 PAM	ClpP mod	gsp agonist	TRPML1 blocker
Cc1cc(C)cc(NS(=O)(=O)c2cc(Br)cnc2N)c1	nt	16%	-9%	5	nt	22%	-18
Cc1ccccc1NC(=O)CCS(=O)(=O)c1ccc(Br)cc1	-6.5	-1%	17%	8	1.1%	?	-9
CC(O/N=C/c1ccccc1OC(F)F)C(=O)Nc1cccc(S(=O)(=O)N2CCOCC2)c1 (stereo not drawn)	6.6	-2%	-10%	6	-15%	5%	10
O=C(COc1ccc(S(=O)(=O)N2CCCC2)cc1)Nc1ccc(F)cc1	2.6	11%	-10%	-16	nt	1%[15.4 µM]	2
COC(=O)c1ccc(OCC(O)CN2CCN(CC(O)COc3ccc(C(=O)OC)cc3)CC2)cc1 (stereo not drawn)	7.6	13%	4%	?	-0.8%	11%	9
Cc1nc(SCC(=O)Nc2ccc3[nH]c(=O)[nH]c3c2)nc(C)c1C	nt	nt	4%	nt	-2.4%	4%[15.4 µM]	-5
CCCc1oc(C(=O)O)cc1CN	2.6	2%	8%	6	0.6%	16%	-5
Cc1cc(C)n(CC(=O)c2cccc([N+](=O)[O-])c2)n1	-3.3	13%	-3%	5	nt	-5%	-3
Oc1ccc(Br)cc1-c1nc2cnccn2c1NC1CCCC1	?	-4%	-10%	8	-23%	21%	1
N#CNC(=Nc1cccc(F)c1)SCc1cccc(F)c1	1.9	6%	-10%	-21	-3.3%	2%	-13
O=C(CC1CC2CCC1C2)Nc1nc(-c2ccccn2)cs1 (stereo not drawn)	2.5	35µM*	nt	-13	nt	-7%[15.4 µM]	36
CCN(CC)CCCN(Cc1cc2cc3c(cc2[nH]c1=O)OCO3)C(=S)NCCOC	2.8	10%	14%	23	4.1%	1%	16
O=C(NCc1ccccc1)C1=C[C@@H](c2ccc(C(F)(F)F)cc2)C[C@@H](OCCCCO)O1	nt	nt	2%	nt	-2.4%	nt	-7
O=C1[C@@H]2C(c3cccnc3)=NO[C@@H]2C(=O)N1c1ccc(Cl)cc1Cl	9.6	?	11µM*	nt	1.0%	?	15
COC(=O)C(CCCCNC(=O)c1ccc([N+](=O)[O-])cc1)NC(=O)c1ccc([N+](=O)[O-])cc1 (stereo not drawn)	9.2	-1%	-3%	-3	-2.7%	0%[15.4 µM]	-19
CS(=O)(=O)c1ccc(Cl)c(NC(=O)C2CC(=O)N(Cc3ccccc3)C2)c1 (stereo not drawn)	-0.9	9%	-7%	8	-2.6%	-7%	-2
COc1cc(C2c3[nH]c4ccccc4c3CC3COC(=O)N32)cc(OC)c1O (stereo not drawn)	nt	nt	25%	nt	1.2%	19%	-4
Cc1cccc(NC(=S)N(CCCN2CCOCC2)Cc2ccco2)c1	0.1	-26%	4%	3	nt	-6%[15.4 µM]	-9
C#CCOCCOCCOCCNc1nc(N2CCN(C(=O)[C@H]([C@@H](C)CC)n3cc(CCCN=C(N)N)nn3)CC2)nc(N2CCN(C(=O)[C@H](Cc3ccc(O)cc3)n3cc(CCO)nn3)CC2)n1	-1.1	-12%	12%	10	0.9%	nt	-1
CCc1cc(C(=O)N2CCN(C(=O)c3ccccc3)CC2)sc1C	nt	nt	-9%	-18	0.9%	-13%	-14
CN1/C(=C\C(=O)COC(=O)CNC(=O)c2ccccc2F)C(C)(C)c2ccccc21	3.8	14%	-4%	-9	nt	8%[15.4 µM]	-17
Cc1ccc(NC(=O)CSc2ncn(-c3ccccc3)n2)cc1C	3.2	-2%	-18%	-7	-5.0%	-79%[inhibitor]	6
CSc1nc2ccc(Cl)cc2[nH]1	4.0	4%	3%	-5	0.4%	12%	2
CC(C)CCNC(=O)NC(=O)CSc1nnc(COc2ccccc2Cl)o1	2.2	15%	-16%	-3	-0.5%	-7%	1
CN1C2CCC1CC(N(CCc1ccccc1)C(=O)c1ccc(Cl)cc1)C2 (stereo not drawn)	3.6	0%	10%	-6	-0.1%	?	-12
COCCN1C(=O)c2ccccc2C(C(=O)NCC2CCCO2)C1c1c[nH]c2ccccc12 (stereo not drawn)	-0.6	8%	-3%[15.4 µM]	1	-13%	0%	5
Cc1ccc2nsnc2c1S(=O)(=O)Nc1ccccc1C(=O)O	0.2	6%	-4%	?	-5.4%	1%	13
CCOc1cc2[nH]c(=S)n(C(C)C)c(=O)c2cc1OCC	5.8	1%	9%	7	1.2%	40%	-4
COc1cccc(/C=N/NC(=O)C(=O)N2CCCC2)c1OC	2.5	17%	7%	9	-2.2%	-16%	-13
N#Cc1ccc(N2Cc3ccccc3C2=NC(=O)c2cccs2)cc1	-1.4	7%	-4%	-3	-20%	-5%	-7
Cc1ccc(-c2nnc(Sc3nc4ccccc4o3)c3ccccc23)cc1	2.7	-6%	-14%	6	-3.1%	3%	63
CCC/C=N/Nc1nc2ccccc2s1	0.7	-5%	?	3	nt	3%[15.4 µM]	29
CN(C)N1C(=O)CC(C)(c2ccc([N+](=O)[O-])cc2)C1=O (stereo not drawn)	nt	nt	5%	-60	-12%	-11%	12
COc1ccc(-c2nnn(CC(=O)c3c[nH]c4ccccc34)n2)cc1OC	3.2	9%	-20%	7	-0.6%	-15%	-4
COCCCC1CCN(Cc2nc(Cc3ccccc3Cl)no2)CC1	1.1	-6%	2%	-5	nt	18%	-1
O=S(=O)(c1cc(Cl)ccc1Br)N1CCOCC1	3.3	21%	-5%	18	1.6%	?	-15

Some of these compounds in order of heavy-atom count, highest first.
SMILES	Menin MLL FP FL	Sfp inh	gsp antag	TRPV1 PAM	ClpP mod	gsp agonist	TRPML1 blocker
COCCN1C(=O)c2ccccc2C(C(=O)NCC2CCCO2)C1c1c[nH]c2ccccc12 (stereo not drawn)	-0.6	8%	-3%[15.4 µM]	1	-13%	0%	5
Cc1ccc(-c2nnc(Sc3nc4ccccc4o3)c3ccccc23)cc1	2.7	-6%	-14%	6	-3.1%	3%	63
COCCCC1CCN(Cc2nc(Cc3ccccc3Cl)no2)CC1	1.1	-6%	2%	-5	nt	18%	-1
Cc1ccc2nsnc2c1S(=O)(=O)Nc1ccccc1C(=O)O	0.2	6%	-4%	?	-5.4%	1%	13
COc1cccc(/C=N/NC(=O)C(=O)N2CCCC2)c1OC	2.5	17%	7%	9	-2.2%	-16%	-13
CCOc1cc2[nH]c(=S)n(C(C)C)c(=O)c2cc1OCC	5.8	1%	9%	7	1.2%	40%	-4
CN(C)N1C(=O)CC(C)(c2ccc([N+](=O)[O-])cc2)C1=O (stereo not drawn)	nt	nt	5%	-60	-12%	-11%	12
O=S(=O)(c1cc(Cl)ccc1Br)N1CCOCC1	3.3	21%	-5%	18	1.6%	?	-15
CCC/C=N/Nc1nc2ccccc2s1	0.7	-5%	?	3	nt	3%[15.4 µM]	29

Other records
SMILES	Menin MLL FP FL	Sfp inh	gsp antag	TRPV1 PAM	ClpP mod	gsp agonist	TRPML1 blocker
COc1ccc(/C=N/N=C2/NC(=O)C(c3ccccc3)S2)c(OC)c1 (stereo not drawn)	0.4	1%	-24%	15	-0.7%	-14%	-1
CC1CC(C)CN(CCCNC(=O)COc2cc(=O)n(C)c3ccccc23)C1 (stereo not drawn)	4.5	-7%	6%	2	-7.5%	0%	-4
COC(=O)c1[nH]nc2c1C(=O)N(C1CCCCC1)C2=O	0.6	7%	2%	4	-5.4%	-4%	8
COc1cc(C(=O)Oc2cccc(C=O)c2)cc(OC)c1OC	0.4	15%	-1%	-1	1.4%	1%	-6
CCOC(=O)c1c(C)[nH]c(C(=O)NCc2ccco2)c1C	1.2	16%	nt	5	nt	nt	nt
Cn1cnnc1SCC(=O)c1ccco1	2.4	-21%	14%	8	0.6%	-14%	4
Cc1cc(C(=O)Nc2cc(C)n(Cc3ccc(Cl)cc3)n2)no1	1.5	-8%	-21%	-6	0.8%	-57%	5
Cc1ccc(NC(=O)c2cccc(S(=O)(=O)N3CCCC3)c2)nc1	nt	nt	5%	-8	nt	-3%[15.4 µM]	10
CC(C)c1ccc(OCC(=O)NC2CC(C)(C)NC(C)(C)C2)c(Br)c1	nt	13%	11%	-13	-0.7%	15%	16
O=C(NCC1CCN(Cc2ccccc2F)CC1)Nc1ccccc1F	-4.4	8%	21%	-14	0.9%	22%	8
COc1ccc(CC(=O)NCC2CCCN(Cc3ccc(OC(F)(F)F)cc3)C2)cc1 (stereo not drawn)	1.1	21%	2%	-10	nt	3%	8
O=C(CSc1nnc(C2CC2)n1CC1CCCO1)Nc1cccc(Cl)c1 (stereo not drawn)	-4.4	9%	-17%	-7	nt	-1%[15.4 µM]	0
COc1ccc(NC(=O)CCC(=O)c2ccc(F)cc2)cc1	nt	nt	13%	nt	nt	-2%	13
COc1cc(OC)cc(C(=O)N2CCN(Cc3ccccc3[N+](=O)[O-])CC2)c1	3.4	50µM*	-16%	16	nt	-2%[15.4 µM]	0
Cc1nnc(SCC(=O)NC2CCCC2)n1C(C)C	nt	0%	5%	-3	0.7%	0%	-9
C=CCn1c(SCC(=O)NC)nc2sc3c(c2c1=O)CCC3	1.2	4%	-4%	-13	-0.6%	13%	4
CCCCCC(=O)N1C[C@@H](n2cc(C3CC3)nn2)[C@H](O)C[C@@H]1c1ccccc1	nt	nt	nt	nt	-2.2%	24%	0
CCOc1ccccc1CN1CCN(C2CCN(c3ccccc3F)CC2)CC1CCO (stereo not drawn)	-1.2	14%	11%	0	nt	-3%[15.4 µM]	5

Screening data: PubChem, National Center for Advancing Translational Sciences (NCATS)
